# Vaccinia Venus – qHTS for Stage-Specific Inhibitors of Vaccinia Orthopoxvirus: Venus Reporter Primary qHTS. hit rate 0.46% among 330,000. Vaccinia virus Venus reporter expression, fluorescence. AID 720580, 2013. Potency, µM (top dose mostly 36.5 µM), without a hit: at the highest dose activity change, negative = inhibition, actives largely listed as inhibitors; active means well fitted inhibition curve with a large enough effect; inconclusive means small, poorly fitted or top-dose-only effect; inactive means no such curve, though single readings can be large or run the other way; tested in A549 cells; note: nearly all actives have a fitted effect of over 30% in size; inactives centre near -10
# VACV mCherry inh – qHTS for Stage-Specific Inhibitors of Vaccinia Orthopoxvirus: mCherry Reporter Primary qHTS | AID 720579, 2013 | hit rate 0.63% among 310,000 | Potency, µM (doses to about 36.5 µM), inactives show at the highest dose activity change, negative = inhibition, hits mostly inhibitors | Vaccinia virus mCherry reporter infection, fluorescence; about a quarter of the inactives have no number; active = well fitted inhibition curve with a large enough effect; inconclusive = small, poorly fitted or top-dose-only effect; inactive = no such curve, though single readings can be large or run the other way; tested in A549 cells; note: nearly all actives have a fitted effect of over 35% in size; inactives centre near -10
# Active calls of the source: *; i = inactive; ? = inconclusive; . = not tested or not shown; & = joins results of further samples; [ ] = remark or other dose. % is set by controls: 0 for no effect and ±100 for the full control effect; potency is the fitted concentration of half-maximal effect.
# Screens in order: Vaccinia Venus, VACV mCherry inh
- Cc1ccc(C(=O)N2CCC3(CC2)Oc2ccc(Cl)cc2C(=O)C32CC(c3ccc(Cl)cc3)=NO2)s1 (stereo not drawn)
  -10%, i
- CC(C)CSC1=NSC2=NC(=O)/C(=C\c3cccs3)C(=N)N12
  -8%, i
- CCc1ncn(CCc2ccccc2OC)c1C(C)C
  9%, 7%
- O=C(Oc1c(Br)cc([N+](=O)[O-])cc1Br)c1cccnc1
  -13%, i
- Cc1ccc(O)c(NC(=O)C2CCCCC2)c1
  ?, ?
- CCCCn1nnnc1SCC(=O)c1cc(Cl)ccc1OC
  -14%, i
- Cc1ccc2nc3n(c(=O)c2c1)CCCCC3
  -18%, -24%
- CSc1ccccc1NC(=O)COc1nsnc1N1CCOCC1
  -4%, -2%
- COc1ccc(-n2c(-c3ccccc3Br)nc3ccccc3c2=O)cc1
  -8%, i
- O=C(N/N=C/c1ccc(O)cc1)Nc1cccc2nsnc12
  ?, 10µM*
- Cc1cc2oc(=O)cc(-c3ccccc3)c2c(C)c1-c1ccc(C(F)(F)F)cc1
  -13%, i
- Cc1ccc(-n2nc3ccc(NC(=O)/C=C/c4ccco4)cc3n2)cc1
  ?, ?
- O=C(CCc1ccccc1)c1nnc(-c2ccccc2)o1
  -13%, i
- Cc1cc(C)n2nnnc2n1
  -10%[7.34 µM], i[7.34 µM]
- CCOc1ccc(CCNC(=O)CS(=O)(=O)Cc2nc(-c3ccc(OC)cc3)oc2C)cc1
  -18%&-12%, -28%&-16%

# Screens in order: Vaccinia Venus, VACV mCherry inh
- CCC(c1nnnn1CCc1ccccc1)N1CCN(c2ccc(OC)cc2)CC1 (stereo not drawn)
  -3%, -12%
- COc1ccc(C(C(=O)NC(C)(C)C)N(C(=O)CCC(=O)Nc2cc(C)on2)c2ccccc2F)cc1 (stereo not drawn)
  0%, -2%
- Nc1nc2c(nc(N3CCOCC3)n2COCCO)c(=O)[nH]1
  -16%, 37%[activator]
- Cc1ccccc1NC(C)C(=O)N/N=C/c1ccccc1OCc1cccc(Br)c1 (stereo not drawn)
  ?, ?
- CCOC(=O)C1(C)CCCN(C(=O)c2c(-c3ccccc3)noc2C)C1 (stereo not drawn)
  -8%, i
- COc1ccccc1NC(=O)c1cc2c(-c3ccccc3)nn(-c3ccccc3)c2s1
  -6%, -12%
- CCOc1ccc(NC(=O)C/C(C)=N/NC(=O)COc2ccc(Br)cc2C)cc1
  -10%, i
- CSc1ncccc1C(=O)OCC(=O)N1CC2(C)CC1CC(C)(C)C2 (stereo not drawn)
  -14%, -2%
- CCS(=O)(=O)c1ccc(O)c(NC(=O)Nc2cccc3ccccc23)c1
  2%, -16%
- Cn1cnnc1SCC(=O)Nc1ccccc1F
  -8%, -20%
- CN(CCO)c1nc(N)c(C#N)c(CC#N)c1C#N
  -2%, -14%
- O=C(/C=C/c1ccc([N+](=O)[O-])cc1)NCc1ccco1
  1%, -19%
- COC(=O)[C@]1(Cc2ccccc2)N[C@H](CN(C)C(=O)Nc2ccc(F)cc2)[C@@H]2C(=O)N(C)C(=O)[C@@H]21
  -7%, i
- Cc1cc(C(F)F)n2nc(C(=O)Nc3ccc(S(=O)(=O)N4CCCCCC4)cc3)nc2n1
  -19%, .
- CC(C)CCn1c(=O)c(C(=O)NCc2ccco2)c(O)c2ccccc21
  -5%[7.34 µM], i[7.34 µM]

# Screens in order: Vaccinia Venus, VACV mCherry inh
- O=c1[nH]nnc2c1sc1nc(N3CCOCC3)c3c(c12)CCCC3
  -12%, -25%
- COC(=O)/C=C/c1ccc(-n2ccnc2)cc1
  1%, i
- Cc1cc(C)nc(NN2C(=O)/C(=C/c3ccccc3)SC2=S)n1
  3%, -12%
- CCCCc1nc2ccccc2[nH]1
  -14%, i
- CCCCNC(=O)c1cc2c(=O)n3cccc(C)c3nc2s1
  -14%&-12%, -13%&-12%
- O=C(NCc1ccccc1Cl)c1ccc2c(c1)NC(=O)C(CS(=O)(=O)Cc1ccc(F)cc1Cl)N2 (stereo not drawn)
  9%, -8%
- COc1ccccc1CNC(=O)CN1C(=O)NC(C)(c2ccc(C(C)(C)C)cc2)C1=O (stereo not drawn)
  -10%, i
- CNC(=O)c1ccccc1F
  -6%, -5%
- O=C(NCC1CCCO1)c1nn2c(c1Cl)NC(c1ccc(F)cc1)CC2C(F)(F)F (stereo not drawn)
  -16%, -7%
- O=C(N/N=C/c1cc(Br)c(O)c(Br)c1)c1cccnc1
  -4%, -13%
- CC1CCCC(NC(=O)C2CCN(S(=O)(=O)c3cccc4nonc34)CC2)C1C (stereo not drawn)
  -6%, -1%
- CNC(=O)C1=NCCCc2cc(OC)c(OC)cc21
  -11%, -14%
- Cc1cc(C)c2ccc(N)nc2c1O
  ?, 13µM*
- CN1C(=S)SC(/[N+]([O-])=C/c2cccnc2)C1(C)C (stereo not drawn)
  -4%, -3%
- S=c1[nH]nc(Cn2c(-c3ccccn3)nc3ccccc32)n1-c1ccc2c(c1)OCCO2
  -6%[7.34 µM], i[7.34 µM]

# Random excerpt: 5 compounds from above
# Screens in order: Vaccinia Venus, VACV mCherry inh
- CCCCNC(=O)c1cc2c(=O)n3cccc(C)c3nc2s1
  -14%&-12%, -13%&-12%
- O=c1[nH]nnc2c1sc1nc(N3CCOCC3)c3c(c12)CCCC3
  -12%, -25%
- CCCCc1nc2ccccc2[nH]1
  -14%, i
- CN1C(=S)SC(/[N+]([O-])=C/c2cccnc2)C1(C)C (stereo not drawn)
  -4%, -3%
- O=C(N/N=C/c1cc(Br)c(O)c(Br)c1)c1cccnc1
  -4%, -13%

# More compounds follow.
# Screens in order: Vaccinia Venus, VACV mCherry inh
- O=c1c2c([N+](=O)[O-])cc([N+](=O)[O-])cc2sn1-c1ccc(Br)cc1
  -6%, -19%
- O=C(N/N=C/c1ccc2c(c1)OCO2)c1ccccn1
  -8%, -1%
- COc1cc(C(=O)Nc2ccc(N(C)C)cc2)c([N+](=O)[O-])cc1OC
  -1%, -19%
- Cc1cccc(Cn2cc(S(=O)(=O)c3ccc(Cl)cc3)c(=O)c3cc4c(cc32)OCO4)c1
  -3%, -4%
- CN1CCN(c2ccc(S(=O)(=O)N3CCCCC3)cc2[N+](=O)[O-])CC1
  -13%, -6%
- Cc1cc2nc(-c3ccc(SCC(=O)Nc4ccc(S(=O)(=O)NC5CC5)cc4)nc3)[nH]c2cc1C
  -21%, -27%
- N#CC1c2ccccc2C=CN1C(=O)c1ccc(N(CCCl)CCCl)cc1 (stereo not drawn)
  -24%, -13%
- CC(C)Oc1ccc2ccccc2c1C=O
  0%, -7%
- CCOC(=O)c1c(NC(=O)C2CC(Cl)=CCC2C(=O)O)sc2c1CC(C)(C)OC2 (stereo not drawn)
  -5%, -11%
- O=C(O)c1[nH]c2ccccc2c1C(c1cc(Cl)cc([N+](=O)[O-])c1O)c1c(C(=O)O)[nH]c2ccccc12
  -12%, i
- COc1ccc(C(=O)Nc2ccc3cn[nH]c3c2)c(OC)c1
  -10%, i
- COc1ccc(N2CCN(S(=O)(=O)c3c(C)n(C)c(=O)n(C)c3=O)CC2)cc1
  -5%, i
- O=[N+]([O-])c1ccc(S(=O)(=O)Nc2nc3ccccc3nc2Nc2ccccc2)cc1
  -4%, 7%
- Cc1ccc(NC(=O)CC2(CC(=O)O)CCCC2)cc1
  -3%, -15%
- COc1cc(C2c3c(oc4ccccc4c3=O)C(=O)N2Cc2ccc(C)cc2)ccc1O (stereo not drawn)
  -11%, -4%

# In the list so far, these contain a cyano group:
# Screens in order: Vaccinia Venus, VACV mCherry inh
- CN(CCO)c1nc(N)c(C#N)c(CC#N)c1C#N
  -2%, -14%
- N#CC1c2ccccc2C=CN1C(=O)c1ccc(N(CCCl)CCCl)cc1 (stereo not drawn)
  -24%, -13%

# Next part:
# Screens in order: Vaccinia Venus, VACV mCherry inh
- COCCn1c(COC)nc2ccccc21
  -15%, .
- CCC1CCCCN1C(=O)c1ccc(OC2CCN(Cc3ccccn3)CC2)cc1 (stereo not drawn)
  -13%, -19%
- CN(C)CCCn1c2c(c(SCC(=O)Nc3cccc4ccccc34)nc1=O)CCCC2
  -12%, i
- CCN(CC)S(=O)(=O)c1cccc(C(=O)Nc2ccc3c(c2)OCO3)c1
  -10%, -13%
- CC(C)(CSc1ccccn1)NS(=O)(=O)c1ccccc1
  -12%, -14%
- COC(=O)c1ccc(NC(=O)CN2CCN(c3ccc(Cl)cc3)CC2)cc1
  -8%&-12%, -19%&-4%
- COC/C=C/C1=CC2=CC(=O)C(C)(OC(=O)c3cnc4ccccc4n3)C(=O)C2=CN1CC1CC1 (stereo not drawn)
  -2%, -14%
- COC(=O)c1cc(Cl)ccc1NCC(N)c1ccccc1 (stereo not drawn)
  -6%, 1%
- Cc1ccc(NS(=O)(=O)c2cccc(C(=O)Nc3cc(C)on3)c2)cc1
  -23%, -14%
- COc1ccc(CCNC(=O)COc2ccc(S(=O)(=O)NCC(C)C)cc2Cl)cc1OC
  -22%, -13%
- O=C(c1ccccc1-c1ncc[nH]1)N1CCc2c([nH]c3ccccc23)C1c1ccccn1 (stereo not drawn)
  -14%, -6%
- CC(C)(C)OC(=O)C[C@@H]1C/C=C\C[C@@H](CC(=O)NCCO)C(=O)NC[C@@H](c2ccccc2)OC1=O
  -7%, i
- O=C(NC1CC(=O)N(c2ccccc2)C1)c1ccc(S(=O)(=O)N2CCCCC2)cc1 (stereo not drawn)
  -5%[7.34 µM], -9%[7.34 µM]
- CC1CCCN(C(=O)CSc2n[nH]c(-c3cccs3)n2)C1 (stereo not drawn)
  -11%, i
- COc1cccc(N2CCN(C(=O)C3Cc4ccccc4N3C(C)=O)CC2)c1 (stereo not drawn)
  9%, -6%

# Continued, starting with the last 2 of the part before.
# Screens in order: Vaccinia Venus, VACV mCherry inh
- CC1CCCN(C(=O)CSc2n[nH]c(-c3cccs3)n2)C1 (stereo not drawn)
  -11%, i
- COc1cccc(N2CCN(C(=O)C3Cc4ccccc4N3C(C)=O)CC2)c1 (stereo not drawn)
  9%, -6%
- O=C(Nc1ccc(F)c(F)c1)C1CCN(S(=O)(=O)c2cccs2)CC1
  -23%, 20%
- O=C(CNC(=O)c1ccc(Cl)cc1)OCc1cc(=O)n2nc(C3CCCCC3)sc2n1
  -8%, -2%
- O=C1N/C(=N\N=C\c2cccs2)SC1Cc1cccc(Cl)c1 (stereo not drawn)
  -26%, ?
- Cc1cc(S(=O)(=O)N2CCCC(C(=O)Nc3ccc(C(=O)O)cc3)C2)ccc1Cl (stereo not drawn)
  -7%, -13%
- COc1ccc(CNC(=O)Cc2cn(C)c3ccccc23)c(OC)c1
  -9%, -8%
- Cc1nc2cc(C(=O)N3CCc4ccccc43)ccc2n1-c1ccc(F)c(F)c1
  -3%, -19%
- O=C(Nc1cccc(S(=O)(=O)N2CCCCC2)c1)c1c2c(nc3ccccc13)CCN(Cc1ccccc1)C2
  -28%, -2%
- COC(=O)C1=C(c2c(C)noc2C)C[C@@H]2CC[C@H]1N2C(=O)NCCOc1ccccc1Cl
  -23%, -13%
- O=[N+]([O-])c1cnn(-c2nc(-c3ccco3)cc(C(F)(F)F)n2)c1
  1%, -10%
- CC[C@H](C)C1OC(=O)[C@@H](C)[C@@H](CC)NC(=O)[C@H](C)N(C)C(=O)C(C)(C)C(=O)C(C)NC(=O)[C@H](Cc2ccc(OC)cc2)N(C)C(=O)[C@H](C(C)C)N(C)C(=O)CNC(=O)[C@H](CC(C)C)N(C)C(=O)CNC1=O (stereo partly drawn)
  1µM*, 0.89µM*
- O=C1CN(C(=O)COC(=O)c2cccc(OCc3ccccc3)c2)c2ccccc2N1
  6%, -15%
- Nc1ccccc1-c1nnn(CC(=O)N2CCCc3ccccc32)n1
  -11%, i
- COc1ccc2oc(C(=O)N3CCN(C(c4ccccc4)c4ccccc4)CC3)c(C)c2c1
  -5%, -18%
- CC1(C)C(=O)N(c2ccccc2Cl)C(=O)c2ccccc21
  3%, -14%
- COc1cccc2c1OCC(CN1CCN(CCC(C)C)C(CCO)C1)=C2 (stereo not drawn)
  -5%, -4%

# Screens in order: Vaccinia Venus, VACV mCherry inh
- COc1ccc(/C=C/C(=O)OCC(=O)c2ccc(S(=O)(=O)N3CCCCC3)cc2)cc1OC
  2%, -23%
- O=C(CN1CCCN(Cc2ccccc2Cl)S1(=O)=O)NCc1ccccc1
  -13%, -14%
- CCn1c(COc2ccc(Cl)cc2)nnc1SCC(=O)Nc1ccc2c(c1)OCO2
  -13%, -13%
- COC(=O)c1cn[nH]c1N
  -4%, .
- C=CCN(CC=C)S(=O)(=O)c1ccc(C(=O)Nc2sc3c(c2C(N)=O)CCCCC3)cc1
  -20%, -16%
- COc1ccc(C(=O)Nc2ccc3c(c2)C(=O)NC3=O)cc1
  -6%, -9%
- Nc1sc(Cc2ccccc2)cc1C(=O)c1c(-c2ccccc2)[nH]c2ccccc12
  ?, ?
- COCCCNC(=O)CN(c1ccc(F)cc1)S(=O)(=O)c1ccc2c(c1)OCCO2
  -7%, -17%
- Cc1ccc(Cl)cc1N1CCN(C(=O)CCCCCn2c(=O)[nH]c3ccccc3c2=O)CC1
  -17%, -7%
- NC(=O)C1CCN(C(=O)Cc2ccsc2)CC1
  2%, i
- O=C(NCCCN1CCCC1=O)c1ccc(S(=O)(=O)Nc2ccccc2)cc1
  -16%, -3%
- COc1cc(OC)cc(N2C(=O)CSC23C(=O)Nc2ccccc23)c1 (stereo not drawn)
  3%, 6%

# Screening results deposited in PubChem by National Center for Advancing Translational Sciences (NCATS).
